GIV-Gai inh = inhibitors of GIV peptide binding to Galpha-i3, primary screen, biochemical, fluorescence polarization, FITC-GIV GBA peptide, rat Galphai3; Guanine nucleotide-binding protein G(i) subunit alpha-3 (Rattus norvegicus), P08753; 90 min; hits give low values; scaled: aluminum fluoride 0%, vehicle 100%; percent of control (FP), % (test concentration not listed); actives 0.42% (n = 210,000); AID 1224905, 2016;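 active = replicate mean at 85% of control or lower, very high polarization wells dropped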;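 also: wells of about 15 µL received 100 nL stock; the first replicate is given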
Target sequence (P08753 whole entry, looked up): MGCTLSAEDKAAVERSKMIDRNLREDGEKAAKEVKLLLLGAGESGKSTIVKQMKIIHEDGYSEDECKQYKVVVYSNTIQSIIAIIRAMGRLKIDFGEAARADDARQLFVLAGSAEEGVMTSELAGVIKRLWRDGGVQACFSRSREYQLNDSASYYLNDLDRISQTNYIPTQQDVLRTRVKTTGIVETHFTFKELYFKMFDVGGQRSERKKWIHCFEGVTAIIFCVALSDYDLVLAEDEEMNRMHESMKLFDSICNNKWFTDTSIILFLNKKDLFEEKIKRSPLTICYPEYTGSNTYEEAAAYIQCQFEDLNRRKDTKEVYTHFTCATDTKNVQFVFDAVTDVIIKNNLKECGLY
* marks the source's active call; other numbers are inactive results.

Molecule | GIV-Gai inh
Cc1ccc(NC(=O)c2nnc(C3CCCN(S(=O)(=O)c4c(C)nn(C)c4C)C3)s2)cc1 (configuration not stated) | 103
Cc1cc2c(cc1S(=O)(=O)N1CCCC1C(=O)Nc1cccc(C)c1C)OCC(=O)N2 (configuration not stated) | 103
CC(=O)Nc1nc(-c2ccc(Cl)c(Cl)c2)nc2c1c(=O)oc1ccccc12 | 105
CCOC(=O)c1sc2nc(SCC(=O)NCc3ccco3)n(Cc3ccc(F)cc3)c(=O)c2c1C | 104
N#CC1=C([S-])N[C@@](O)(c2ccccc2)[C@H]([n+]2cccc3ccccc32)[C@H]1c1ccc(Br)cc1 | 120
Cc1cc(C2CCCN2C(=O)NC(C)(C)C)on1 (configuration not stated) | 108
Cc1[nH]c(-c2nnc(C3CCC3)o2)c(C)c1S(=O)(=O)N1CCN(C(C)C)CC1 | 107
COc1ccc(C2=NN3C(C2)c2cc(OC)ccc2OC3c2ccc(OC)c(OC)c2)cc1 (configuration not stated) | 114
CC1(C)CC(=O)C2=C(C1)OC1=C(C(=O)CC(C)(C)C1)C2c1cc(Cl)c(O)c(Cl)c1 | 111
CC1(C)CC(=O)C2=C(C1)OC1=C(C(=O)CC(C)(C)C1)C2c1ccc(OCC(=O)Nc2ccc3c(c2)OCO3)cc1 | 107
CCOC(=O)C1=C(C)N=c2s/c(=C/c3ccc(N4CCOCC4)o3)c(=O)n2C1c1ccc(OC)c(OC)c1 (configuration not stated) | 115
COc1ccc(-c2nnc3ccc4ccccc4n23)cc1 | 105
CCCn1c2ccccc2c2n[nH]c(=S)nc21 | 106
CCOC(=O)c1c(NC(=O)CSc2nc3c([nH]c4ccccc43)c(=O)n2C)sc2c1CCC2 | 102
CCc1ccccc1NC(=O)Nc1ccc(CCc2nc3ccccc3n2C)cc1 | 99
COc1ccccc1Cn1c(=S)[nH]c2cc(C(=O)N3CCN(C4CCCCC4)CC3)ccc2c1=O | 110
CCc1ccc(S(=O)(=O)N(C(=O)c2ccncc2)c2ccc3oc(C)c(C(C)=O)c3c2)cc1 | 119
O=C(Nc1sc2c(c1C(=O)Nc1ccccc1)CCCCC2)c1ccccc1F | 121
CCOc1ccc(/C(O)=C2\C(=O)C(=O)N(c3ccccc3)C2(O)C(=O)OC)cc1 (configuration not stated) | 105
CCCNC(=O)c1[nH]c2ccccc2c1NC(=O)c1ccc(C)cc1 | 95
O=C(Nc1ccc2c(c1)OCCO2)NC1CCN(c2ccccc2)C1=O (configuration not stated) | 93
CC1CCN(CC2CCN(C(=O)NC3CCCC3)CC2)CC1 | 102
COc1ccc(NC(=O)c2ccc(SCCN3CCCCC3)nc2)cc1 | 99
CCOc1ccc(N(C)S(=O)(=O)c2ccc3[nH]cc(C(=O)NCCc4ccc(OC)c(OC)c4)c(=O)c3c2)cc1 | 107
Cc1sc(-c2cc(C(F)(F)F)on2)cc1S(=O)(=O)Nc1ccc2c(c1)OCCO2 | 103
COc1ccc(OC)c(NC(=O)CSc2n[nH]c(N)n2)c1 | 96
COc1ccc(OC)c(C2CC(=O)Nc3c2ccc2ccccc32)c1 (configuration not stated) | 101
COP(=O)(OC)C(Nc1cccc(C(F)(F)F)c1)c1ccc([N+](=O)[O-])cc1 (configuration not stated) | 119
O=C1CN(C(=O)c2cc([N+](=O)[O-])cc([N+](=O)[O-])c2Cl)c2ccccc2N1 | 96
CCOC(=O)c1sc(NC(=O)CSc2nnc(CNC(=O)c3ccc(C)c(C)c3)n2C)c(C(=O)OCC)c1C | 117
CCOc1nc(NCCO)nc(Nc2ccc([N+](=O)[O-])cc2)n1 | 108
CCOc1ccc(C(=O)Nc2c3c(nn2-c2ccc(OC)cc2)CS(=O)(=O)C3)cc1OCC | 107
COc1cccc(-n2c(=S)sc3c2nc(SCC2OCCO2)n2c4ccccc4nc32)c1 | 105
COc1cc(C)nc(NC(=O)Nc2sc(NS(=O)(=O)c3ccc(C)cc3)nc2C)n1 | 103
CCOC(=O)C1=CN(c2cc(C)ccc2C)C=C(C(=O)OCC)C1c1ccc(OC)c(OC)c1OC | 105
CCn1c(SCc2nc(-c3cccc(OC)c3)no2)nc2cc(-c3ccccc3)sc2c1=O | 98
NC(=O)C1(N2CCCCC2)CCN(C(=O)c2ccc3c(c2)[nH]c(=S)n2c4ccccc4nc32)CC1 | 110
CCN(CC)S(=O)(=O)c1ccc2c(c1)cc(C(=O)N1CCN(c3ccc(Cl)cc3)CC1)n2C | 94
O=C(Nc1ccc(F)c(F)c1)c1nc(N2CCOCC2)c2oc3ccccc3c2n1 | 111
Cc1cc(C2CCCN2Cc2cn[nH]c2-c2cccc(Br)c2)on1 (configuration not stated) | 105
COc1cccc(C2NC(=O)NC(C)=C2C(=O)Nc2ccccc2OC)c1 (configuration not stated) | 104
CC1=NN(c2ccccc2)C(=O)C1C(c1ccccc1Cl)C(C#N)C#N (configuration not stated) | 105
COC(=O)C1=CN(Cc2ccc(Cl)cc2)C=C(C(=O)OC)C1c1cc2c(cc1Br)OCO2 | 112
CC1CCCCN1CCNC(=O)c1ccc2nc(-c3ccccc3)c(-c3ccccc3)nc2c1 (configuration not stated) | 106
CC1CCc2cc(F)ccc2N1C(=O)Nc1cccc(Cl)c1 (configuration not stated) | 112
Cc1cc(NC(=O)Cn2nc(C(=O)N3CCc4ccccc43)ccc2=O)no1 | 101
C=CCn1c(SCC(=O)Nc2nnc(-c3ccccc3)s2)nnc1-c1cccs1 | 102
COc1ccc(/C=C2\C(=O)N(c3ccccc3)C3=C2C(c2ccc(Br)cc2)N(c2ccccc2)C3=O)cc1 (configuration not stated) | 115
COC(=O)c1cc(C(=O)OC)cc(N2C(=O)CSC2c2ccc(Cl)cc2Cl)c1 (configuration not stated) | 101
CCOC(=O)CSc1nc2c(sc(=S)n2Cc2ccco2)c(=O)n1-c1ccc(F)cc1 | 107

The last 4 entries of the section before lead into the next:
Molecule | GIV-Gai inh
C=CCn1c(SCC(=O)Nc2nnc(-c3ccccc3)s2)nnc1-c1cccs1 | 102
COc1ccc(/C=C2\C(=O)N(c3ccccc3)C3=C2C(c2ccc(Br)cc2)N(c2ccccc2)C3=O)cc1 (configuration not stated) | 115
COC(=O)c1cc(C(=O)OC)cc(N2C(=O)CSC2c2ccc(Cl)cc2Cl)c1 (configuration not stated) | 101
CCOC(=O)CSc1nc2c(sc(=S)n2Cc2ccco2)c(=O)n1-c1ccc(F)cc1 | 107
COc1ccc(-c2ccc(OCCNS(=O)(=O)N(C)C)nn2)cc1 | 105
O=C(CSc1nnc(N2C(=O)c3ccccc3C2=O)s1)NCCOc1ccc(Cl)cc1 | 108
CC(C)C1C(c2ccccc2)NC(c2ccccc2)CC1(O)c1ccc(F)cc1 (configuration not stated) | 106
CC(=O)c1c(C)n(S(=O)(=O)c2ccc3ccccc3c2)c2ccc(NS(=O)(=O)c3ccc4ccccc4c3)cc12 | 112
COC(=O)C1=CN(Cc2ccc(OC)cc2)C=C(C(=O)OC)C1c1ccccc1OCc1ccccc1 | 104
COc1ccccc1Oc1cc(-c2ccc(C(=O)Nc3ccc(C)cc3C)cc2)ncn1 | 105
COC(=O)CN1C(c2ccccc2)=Nc2ccc(Br)cc2C1c1ccccc1 (configuration not stated) | 107
COCCN1C(=O)C(=O)/C(=C(/O)c2ccccc2)C1c1ccc(O)c(OC)c1 (configuration not stated) | 103
CC(=O)C12c3ccccc3C(c3ccccc31)C1C(=O)N(c3cccc(C(F)(F)F)c3)C(=O)C12 (configuration not stated) | 106
CCNc1nc(C(N)=O)c(NC(=O)c2cc(-c3ccc(C)c(C)c3)nc3ccccc23)s1 | 105
COc1ccc(NC(=O)Cn2nc3c4sccc4ncn3c2=O)cc1OC | 98
O=C1CC2c3ccccc3C1C1C(=O)N(c3ccc(Cl)c(Cl)c3)C(=O)C21 (configuration not stated) | 112
Clc1cccc(-n2ncc3c(N4CCc5ccccc54)ncnc32)c1 | 94
CC(C)NC(=O)c1csc2c1CCCCC2 | 105
O=C(Nc1ccc2c(c1)OCCO2)N1CCCCCC1c1cccs1 (configuration not stated) | 107
COc1cc(C(=O)Nc2ccc3c(c2)N(C(C)=O)c2ccccc2CC3)cc(OC)c1OC | 101
CN(Cc1ccccc1)S(=O)(=O)c1ccc(N2CCOCC2)c(C(=O)N2CCN(c3ccc([N+](=O)[O-])cc3)CC2)c1 | 105
ClCC1=Nc2ccccc2C(c2ccccc2)(c2ccccc2)O1 | 106
CCOc1ccc(C2Nc3ccc(C)cc3[C@H]3OCCC[C@@H]23)cc1 (some centres not stated) | 101
CC(=O)Nc1ccc(N2C(=O)c3ccccc3CC2(C)C(=O)NCc2ccccc2)cc1 (configuration not stated) | 102
O=C(CCCn1c(=S)[nH]c2ccc(Br)cc2c1=O)NCCCN1CCN(c2cccc(Cl)c2)CC1 | 118
COc1ccc(-c2cc(N3CCN(C(=O)Nc4ccc(C)c(C)c4)CC3)ncn2)cc1 | 103
CN(C)c1ccc(/C=N/N(C(=O)C(O)(c2ccc(Cl)cc2)c2ccc(Cl)cc2)c2ccccc2)cc1 | 116
Cc1cc(NC(=O)c2ccc(=O)n(Cc3ccccc3)c2)ccc1Br | 104
O=c1c(S(=O)(=O)N2CCCC2)cccn1Cc1cccc(Cl)c1 | 103
CCOC(=O)C1=C(C)OC(N)=C(C#N)C1c1cc(F)ccc1F (configuration not stated) | 99
CCN(CC)c1ccc(C2Nc3cccc4cccc(c34)N2)cc1 | 114
COC(=O)c1ccccc1NC(=O)CSc1nc2c(=O)[nH]cnc2n1-c1ccccc1 | 105
COc1ccc(NC(=O)c2c(NCc3ccc(OC)c(OC)c3)sc3c2CCCCC3)cc1 | 104
Cc1cc(C)c(C)c(C2=NON3N(C(=O)c4ccc(Cl)cc4)c4ccccc4N23)c1C | 108
Cc1ccc(Cl)cc1NS(=O)(=O)c1cc(-c2cc(C(F)(F)F)on2)sc1C | 98
Cc1ccccc1N1C(=O)NC(=O)/C(=C\c2cn(CC(=O)Nc3ccccc3)c3ccccc23)C1=O | 108
COc1cc(C2Nc3cccc4cccc(c34)N2)cc(OC)c1O | 121
COc1ccc(CNc2nc(SCC(=O)NCCc3ccc(S(N)(=O)=O)cc3)nc3ccccc23)cc1 | 115
Cc1cccc(N2CCN(S(=O)(=O)c3cc(-c4nnc(C5CC5)o4)co3)CC2)c1C | 104
CCOCCn1cnc2sc(C(=O)N3CCN(C)CC3)c(C)c2c1=O | 119
Cc1ccc(C)c(S(=O)(=O)Nc2ccc(Oc3ccc(C(=O)NCCC(C)C)cn3)cc2)c1 | 99
O=C(Cn1nc2c3sccc3ncn2c1=O)Nc1ccc2c(c1)OCCO2 | 103
CCOC(=O)C1C(=O)NC(SCC(=O)Nc2ccc(Br)cc2)=C(C#N)C1c1ccccc1[N+](=O)[O-] (configuration not stated) | 122
Cn1c(-c2ccccc2)c[n+]2c1-c1ccccc1C2 | 102
Cc1ccc(CNC(=O)Cn2cnc3c(sc4ncccc43)c2=O)cc1 | 103
Cc1sc(C)c(S(=O)(=O)Nc2ccc(Cl)cc2)c1-c1cc(C(F)(F)F)on1 | 102
CSc1ccc(C2N(Cc3ccccc3)CCN2Cc2ccccc2)cc1 | 104
CCCCCCCCCOc1ccc(-c2ncc(CCCCC)cn2)cc1 | 98
Cc1cc(-c2c(C)sc(C)c2S(=O)(=O)Nc2ccc(C)c(F)c2)n[nH]1 | 96
CCOC(=O)C1=C(N)N(c2ccc(S(N)(=O)=O)cc2)C2=C(C(=O)CC(C)(C)C2)C1c1ccc(SC)cc1 (configuration not stated) | 109
CCOC(=O)c1c(C)oc2ccc(N(C(=O)c3cccc([N+](=O)[O-])c3)S(=O)(=O)c3ccccc3)cc12 | 107
COc1ccc(NC(=O)c2c(NCc3ccc(OC)c(OC)c3OC)sc3c2CCCCC3)cc1 | 100
COc1ccc2[nH]c3nc4cc(C)c(C)cc4nc3c2c1 | 116
COc1cc(C(C2=C(O)CC(C)(C)CC2=O)C2C(=O)CC(C)(C)CC2=O)cc(OC)c1OC (configuration not stated) | 118

Further structures follow:
Molecule | GIV-Gai inh
O=S(=O)(NCCO)c1ccc2c(c1)Cc1cc(S(=O)(=O)NCCO)ccc1-2 | 115
Cc1ccc(-c2nc3ccccc3c3nnc(SCc4ccncc4)n23)cc1 | 100
Cc1ccc(Nc2ncnc3c2cnn3C)cc1 | 97
CCS(=O)(=O)c1nc2ccc(NS(=O)(=O)c3ccc(C(C)(C)C)cc3)cc2s1 | 114
Cc1ccc(-c2noc3ncnc(N4CCC(C(=O)NC5CC5)CC4)c23)cc1 | 98
Cc1ccccc1COc1ccc(C2CC(=O)Nc3c2cnn3-c2ccc3nnc(C)n3n2)cc1 (configuration not stated) | 99
CCOc1ccccc1C1NC(=O)NC(C)=C1C(=O)OCc1ccc2c(c1)OCO2 (configuration not stated) | 99
CCCS(=O)(=O)N1CCc2c(c(-c3nnc(SCC)n3CC)nn2C)C1 | 104
COC(=O)c1cccc(NC(=O)c2sc3ncccc3c2-n2cccc2)c1 | 106
O=c1oc2c3c(ccc2c2c1CCC2)OCN(c1ccc(Cl)cc1)C3 | 106
COc1ccc(C2=N/C(=C/c3cc4ccccc4n3C(C)=O)C(=O)O2)cc1Br | 113
COc1ccc(N2CCN(c3nccc4ccc(C(=O)Nc5ccc(Cl)cc5C)cc34)CC2)cc1 | 105
CC12CCCCC13NC(=O)CN3c1ccccc12 (configuration not stated) | 104

Some of these compounds in order of length of the SMILES, low to high.
Molecule | GIV-Gai inh
Cn1c(-c2ccccc2)c[n+]2c1-c1ccccc1C2 | 102
CCCCCCCCCOc1ccc(-c2ncc(CCCCC)cn2)cc1 | 98
O=C(Nc1ccc2c(c1)OCCO2)NC1CCN(c2ccccc2)C1=O (configuration not stated) | 93
CN(C)c1ccc(/C=N/N(C(=O)C(O)(c2ccc(Cl)cc2)c2ccc(Cl)cc2)c2ccccc2)cc1 | 116

2 entries from above, with values ahead of the structure:
| GIV-Gai inh | Structure |
| --- | --- |
| 104 | CCCS(=O)(=O)N1CCc2c(c(-c3nnc(SCC)n3CC)nn2C)C1 |
| 106 | COC(=O)c1cccc(NC(=O)c2sc3ncccc3c2-n2cccc2)c1 |

This is a subset, so the mix of outcomes need not match the whole.
